Compound activity as filed in PubChem BioAssay.
Vif TR-FRET – inhibitors of Vif binding to APOBEC3G peptide, primary screen, biochemical, TR-FRET, GST-Vif 1-94, biotin-A3G peptide, dose response retest (AID 1117319); TR-FRET GST-Vif / biotin-A3G peptide binding; higher % means a stronger effect; test concentration not given here; strong numbers were not always called active; one-dose inhibition, %; IC50 in µM for titrated hits; actives 0.57% (n = 260,000);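 active = above the screen mean plus three standard deviations and confirmed in dose response; inconclusive = results disagree or hit not tested in dose response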;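 also: Vif residues 1-94 fused to GST binding biotinylated APOBEC3G peptide 110-148; 0% = full assay without inhibitor and 100% = GST in place of GST-Vif; retest series ran down from 100 µM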
Ecoli rRNA inh – inhibitors of bacterial rRNA selective over humanized ribosomes; E. coli WT GFP vs humanized-ribosome RFP mutants, fluorescence, 24 h; hits give low values; DMSO median 0, no signal -100; GFP signal change (wild-type ribosome), % (no concentration beside the values); actives 1.6% (n = 350,000);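 active = significant combined selectivity score with lowered wild-type GFP, culture density cut under 30%, mutant RFP and density less affected; inactive = any of these conditions unmet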; also: one replicate is shown; some compounds called inactive have numbers as strong as hits
RanGTP-Imp inh – inhibitors of RanGTP-importin-beta interaction, primary screen, biochemical, FRET, CFP-Ran, YFP-importin-beta, homogeneous. cell-free CFP-Ran/YFP-importin-beta FRET ratio. inhibition, % (concentration not given with the values). actives 1.1% (n = 300,000);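 active = most replicates above 15%; inconclusive = exactly half above 15%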;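 also: 0% = DMSO wells and 100% = Ran loaded with GDP instead of GTP; wells of about 40 µL received 100 nL stock; the first replicate is given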
T cruzi repl – blocks replication of Trypanosoma cruzi. T. cruzi beta-gal in NIH3T3, luminescence, 90 h. inhibition, % (concentration not given with the values). actives 1.4% (n = 300,000). AID 1885;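 active = mean inhibition across valid replicates above about 55%, limit read from the data; inconclusive = mean below that limit but half or more replicates reach it; inactive = mean below it, under half of replicates reach it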;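 also: signal also drops with host cell toxicity which is not excluded here; 0% = plate median of DMSO wells and 100% = zero luminescence signal; higher percent means less beta-gal luminescence so fewer parasites; stock transfer was 50 nL into about 50 µL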
AF4-AF9 inh – blocks AF4 peptide binding to human AF9; P42568; AlphaScreen, biotin-AF4 peptide binding to FLAG-AF9; inhibition, % at 10 µM; actives 0.47% (n = 350,000); AID 651704;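 active = every replicate reaching a set inhibition limit, whatever the replicate mean, cut at about 25% in these data; inconclusive = mean inhibition reaches that limit but some replicates miss it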;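 also: 0% = plate neutral control median and 100% = total signal loss; the record names both 10 and 1 µM as test concentration; the first replicate is given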
Target sequence (P42568 whole entry, looked up): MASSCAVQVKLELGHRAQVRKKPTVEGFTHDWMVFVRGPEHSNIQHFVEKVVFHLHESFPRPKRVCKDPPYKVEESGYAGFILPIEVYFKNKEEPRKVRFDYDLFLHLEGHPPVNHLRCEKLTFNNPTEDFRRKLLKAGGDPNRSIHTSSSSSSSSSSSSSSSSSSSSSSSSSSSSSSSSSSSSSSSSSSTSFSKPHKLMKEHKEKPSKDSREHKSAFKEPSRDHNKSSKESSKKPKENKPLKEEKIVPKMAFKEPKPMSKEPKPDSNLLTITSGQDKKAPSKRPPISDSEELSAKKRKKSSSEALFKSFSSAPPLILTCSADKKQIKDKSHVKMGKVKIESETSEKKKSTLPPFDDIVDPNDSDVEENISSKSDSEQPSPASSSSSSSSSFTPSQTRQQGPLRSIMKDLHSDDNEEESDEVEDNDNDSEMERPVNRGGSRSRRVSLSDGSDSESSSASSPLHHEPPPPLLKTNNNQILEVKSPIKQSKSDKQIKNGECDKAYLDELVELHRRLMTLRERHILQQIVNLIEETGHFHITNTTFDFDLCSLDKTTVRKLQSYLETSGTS
A1 inh – inhibitors of the anti-apoptotic protein A1, read as caspase activation; caspase activation, % (concentration not given with the values); actives 0.066% (n = 330,000); MEF A1-2A-BIM cells, Caspase-Glo 3/7 luminescence, 3 h; percent of clofoctol response, vehicle zero;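 active = over half of replicate activation scores above 10%, or exactly half above 10 with the replicate mean above 10; inconclusive = replicate mean below 10 yet half the replicates above 10; inactive = over half of replicates below 10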;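 also: wells of about 30 µL received 50 nL stock; many hits fall short of the cut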
Calb FLC – affects C. albicans growth with fluconazole; AID 1979; growth inhibition, % (test concentration not listed); C. albicans CaCi-2 (fluconazole-resistant clinical isolate) + fluconazole, Alamar Blue growth, 48 h; actives 0.57% (n = 300,000);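 active = most replicates above 75%; inconclusive = exactly half above 75%; inactive = most below 75%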;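 also: all wells also contain fluconazole at 8 µg/ml as a sub-toxic cotreatment; 0% = median of DMSO wells and 100% = median of geldanamycin control wells; wells of about 8 µL received 7.5 nL stock; the first replicate is given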
Beta cell apopt – beta cell apoptosis inhibition. INS-1E cytokine-induced death, ATP luminescence, 48 h; percent of positive-control rescue, neutral wells zero. protection from apoptosis, % (concentration not given with the values). actives 0.8% (n = 300,000). AID 435005;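 active = all replicates at 75% or more, or half of them and the mean; inconclusive = half reach 75% but not the mean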;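 also: 0% = cytokine-treated negative control wells and 100% = positive control rescue; higher means more ATP so stronger rescue from cytokine killing; wells of about 40 µL received 100 nL stock; the first replicate is given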
Ecoli rRNA inh OD600 – further read-out of Ecoli rRNA inh, marked with its call; OD600 change, %; measured here: OD600 growth;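 optical density of the mix in the first replicate; 0 = DMSO median and -100 = no signal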
Ecoli rRNA inh RFP – second read-out of Ecoli rRNA inh, no call of its own (marks repeat the call); RFP signal change, %; measured here: RFP humanized mutant strains;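 first replicate; 0 = DMSO median and -100 = no signal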
Active calls of the source: *; u = inconclusive; x = not tested or not shown; & = joins results of further samples. Only part of the results is shown, so the mix of outcomes need not match the whole.

SMILES	Vif TR-FRET	Ecoli rRNA inh	Ecoli rRNA inh OD600	Ecoli rRNA inh RFP	RanGTP-Imp inh	T cruzi repl	AF4-AF9 inh	A1 inh	Calb FLC	Beta cell apopt
NNC(=O)c1c(O)c2cccc3c2n(c1=O)CCC3	-3%	-3	-3	-2.4	-1.1	-2	0.1	0.1	0	-1
C/C(=N/Nc1ccc(C(=O)O)cc1)c1ccc(O)c(O)c1O	28%	x	x	x	-0.8	-4	x	1.8	35	0
O=C(Nc1ccc(F)cc1)Oc1ccc[nH]c1=O	x	2	0	2.3	2.2	-6	-2.3	-0.5	-14	-9
O=C(NCSc1ccnc(SCNC(=O)c2ccccc2)n1)c1ccccc1	-1%	23	10	3.6	0.6	2	0.7	-0.1	8	-4
Cc1ccccc1OCC(=O)NCCc1nc2ccccc2[nH]1	-9%	-9	-14	2.6	-0.3	8	-0.8	0.7	2	3
O=C(OCC(=O)N1CCOCC1)c1ccc(F)cc1Cl	x	5	6	-0.5	2.0	-2	-6.6	0.2	1	x
COc1ccc(N2C(=S)N=C(Nc3ccccc3)C23CCCCC3)cc1	-2%	5	10	0.5	5.5	5	-13	0.3	3	-5
Cn1cc([N+](=O)[O-])c(C(=O)N/N=C/c2ccc3c(c2)OCO3)n1	2%	-1	1	1.2	1.6	-22	0.6	-0.6	-17	-9
CCOc1ccc(Oc2nc(Nc3ccc(C)cc3)nc(N(C)C)n2)nn1	u	x	x	x	u	-1	x	0.2	3	-5
COc1ccc(OC)c(NS(=O)(=O)c2ccc(Br)s2)c1	3%	x	x	x	0.3	-7	x	0.4	22	-1
Cc1nnc(SC(C)C(=O)Nc2ccc3ccccc3c2)[nH]c1=O (centres undefined)	-1%	-1	3	5.5	3.2	-5	-0.9	-0.4	3	-4
COc1ccc(NC(=O)CN(C)C(=O)Cn2cnc3c2c(=O)n(C)c(=O)n3C)cc1	-1%	5	6	0.2	2.2	-6	1.7	0.3	3	-3
CC(Sc1nnc(N)s1)c1ccccc1Cl (centres undefined)	-6%	-6	-15	-5.0	0.5	-10	2.9	0.4	26	-7
CC(/C=N/O)Cc1ccc2c(c1)OCO2 (centres undefined)	5%	x	x	x	-2.6	6	x	2.2	-31	-6
COc1ccccc1CN1CC(C(=O)NCCC2=CCCCC2)CCC1=O (centres undefined)	0%	-7	-7	2.5	5.0	10	-1.5	0.3	-4	-4
Cc1ccc(SCc2cc(-c3ccc(Cl)cc3)on2)cc1	0%	x	x	x	-1.6	-11	x	0.0	6	-2
C=CCOCCN(C)C1=NS(=O)(=O)c2cc([N+](=O)[O-])ccc21	2%	18	15	-2.1	-3.2	51	-0.7	1.0	-3	-1
COc1cc2c(cc1OC)C(=O)CC(C)S2 (centres undefined)	-4%	x	x	x	1.1	-6	x	0.9	-1	-1
O=C(CSc1n[nH]c(=O)[nH]c1=O)NC1CCCCC1	x	2	-4	-6.4	-3.5	-6	-3.2	-0.1	3	-4
Cc1ccc(NC(=O)CNC(=O)c2sc3ccccc3c2Cl)nc1	-7%	-11	-13	-2.7	4.1	7	-1.0	0.5	4	6
CC(=O)n1cc([C@@H]2C=C(C(=O)Nc3ccccc3)O[C@H](OCc3ccc(CO)cc3)C2)c2ccccc21	-2%	5	14	-1.6	-3.7	38	-4.6&1.3	0.6	-8	x
Cc1ccc(NC(=O)CS(=O)(=O)c2c[nH]c3ccccc23)c(C)c1	-1%	x	x	x	3.0	5	x	1.6	21	2
Cc1cccc(N(Cc2ccccc2)C(=O)c2ccc(F)c(S(=O)(=O)N3CCOCC3)c2)c1	-2%	-3	-12	1.3	-2.8	17	-1.1	-0.1	9	10
Cc1nc(C)n(C(C)CNS(=O)(=O)c2ccc(C)c(C)c2)n1 (centres undefined)	x	-1	-1	-2.6	2.1	-3	-7.6	0.1	-8	-3
COc1ccccc1N(Cc1cc(=O)[nH]c2ccccc12)C(=O)C(C)C	-3%	2	0	-1.2	-9.0	-5	2.0	-0.2	-7	-4
O=c1c(-c2nc3ccccc3o2)c2oc3ccccc3n2c2ccccc12	2%	x	x	x	1.4	11	x	x	-24	x
C[N+]1(CC(=O)OCCCc2ccccc2)CCCCC1	x	16	4	3.2	2.7	-14	-2.7	0.2	2	-2
O=C(CN1C(=O)CCSc2ccccc21)NC1CCCCC1	x	0	8	0.4	2.9	-3	-1.0	0.2	6	-2
O=C(N/N=C/C1=Cc2ccccc2OC1)c1ccncc1	2%	-2	-1	0.4	-2.7	2	0.2	-1.5	2	5
COc1ccc(-c2csc(Nc3ccc(S(=O)(=O)Nc4cc(C)on4)cc3)n2)cc1C	7%	-47	-59	3.8	-8.8	-1	0.6	1.0	-18	x
O=C(CSc1nnc(CNC(=O)c2cccs2)o1)Nc1ccccc1	x	21	17	0.5	0.5	-8	-1.6	-0.1	6	-1
CCCS(=O)(=O)N1CCCC(C(=O)NCCCN(C)c2ccccc2)C1 (centres undefined)	2%	x	x	x	1.1	16	x	0.5	-9	0
Cc1ccc(CCNC(=O)CNC(=S)N(Cc2ccccc2)Cc2cccnc2)cc1	-1%	-28	-54	2.1	-3.0	72*	-7.2	0.4	13	-11
Cc1ccc2c3c([nH]c2c1C)-c1nonc1CC3	-12%	x	x	x	-3.4	8	x	0.5	-3	-8
O=C(NCCCN1CCCC1)C1CCC(=O)N1C1CCCCC1 (centres undefined)	-2%	9	4	-4.6	0.9	-12	-1.9	0.0	-5	3
O=C1c2cccc3c([N+](=O)[O-])ccc(c23)C(=O)N1O	x	40	-40	-2.2	-4.5	2	2.0	2.4	-3	43

Rewritten with bars between the fields: entries from further up.
Compound | Vif TR-FRET | Ecoli rRNA inh | Ecoli rRNA inh OD600 | Ecoli rRNA inh RFP | RanGTP-Imp inh | T cruzi repl | AF4-AF9 inh | A1 inh | Calb FLC | Beta cell apopt
Cc1ccc2c3c([nH]c2c1C)-c1nonc1CC3 | -12% | x | x | x | -3.4 | 8 | x | 0.5 | -3 | -8
C[N+]1(CC(=O)OCCCc2ccccc2)CCCCC1 | x | 16 | 4 | 3.2 | 2.7 | -14 | -2.7 | 0.2 | 2 | -2
O=c1c(-c2nc3ccccc3o2)c2oc3ccccc3n2c2ccccc12 | 2% | x | x | x | 1.4 | 11 | x | x | -24 | x

Going on with the list.
SMILES	Vif TR-FRET	Ecoli rRNA inh	Ecoli rRNA inh OD600	Ecoli rRNA inh RFP	RanGTP-Imp inh	T cruzi repl	AF4-AF9 inh	A1 inh	Calb FLC	Beta cell apopt
CCOC(=O)C(C)Oc1cccc2c(=O)n(CC(=O)NCCc3ccccc3)ccc12 (centres undefined)	1%	4	2	0.7	-1.1	-13	-5.9	0.2	7	-1
COc1ccc(OC)c(S(=O)(=O)Nc2cc3c4c(c2)CCC(=O)N4CCC3)c1	4%	-6	-11	0.8	0.0	-2	-0.5	0.3	-10	7
NC(=O)NC(CC(=O)NCCc1ccc(S(N)(=O)=O)cc1)c1ccccc1Cl (centres undefined)	x	8	-3	-4.9	-1.4	2	-14	0.9	-4	-7
OC(COc1ccccc1)CN1CCCC1 (centres undefined)	-4%	9	1	-8.1	3.2	-1	-3.0	1.1	7	-4
CCN(c1ccccc1)S(=O)(=O)c1ccc(OC)c(NC(=O)c2ccc(=O)[nH]c2)c1	-5%	-10	4	1.7	x	x	-0.4	-0.1	x	-1
[O-][N+]12CCN(CC1)c1ccccc12	-9%	x	x	x	-4.6	-15	x	1.7	4	-6
OCCCNC(=S)Nc1ccc2nc(-c3ccccn3)c(-c3ccccn3)nc2c1	17%	x	x	x	36*	-8	x	1.3	-4	-11
COc1ccccc1C(=O)Nc1ccnn1C1CCN(Cc2ccc3nonc3c2)CC1	6%	-6	-7	0.1	2.7	7	4.8	0.6	-6	-1
CCOC(=O)Cn1cnc2sc3c(c2c1=O)CCC3	29%	x	x	x	1.0	-9	x	-0.8	-5	x
CC(Sc1nncs1)C(=O)Nc1ccc2c(c1)OCO2 (centres undefined)	x	5	6	5.2	-2.0	7	-2.7	-0.1	-4	9
O=C(O)COc1ccccc1/C=N/NC(=O)c1ccc(F)cc1	23%	14	5	-1.1	-2.2	-18	-2.1	-0.4	7	0
O=C(c1c(F)cccc1F)N1CCN(c2ccccc2F)CC1	4%	x	x	x	-0.6	-6	x	0.4	-22	3
CC(=O)c1ccc(OCCCC(=O)Nc2ccc3c(c2)OCCO3)cc1	2%	-2	4	-2.1	x	x	1.8	0.6	x	3
O=C(Nc1ccccc1)N1CCCN(c2c(Cl)cncc2Cl)CC1	-2%	-17	-11	-1.2	3.1	14	1.2	0.0	-5	-9
O=C(/C=C/c1ccc([N+](=O)[O-])cc1)NCCOc1ccc(F)cc1	x	7	4	-3.1	3.3	11	-2.3	-0.2	-30	-6
CC(C)(C)c1cc(C(=O)N/N=C/c2ccccn2)n[nH]1	u	7	0	2.0	3.2	6	0.4	-0.3	3	0
O=C(Cc1ccccc1)N[C@H](c1ccccc1)P(=O)(O)CO	-7%	x	x	x	2.8	-3	x	-0.2	-5	-2
Cc1ccc(CNc2nc(N)c([N+](=O)[O-])c(NCc3ccccc3)n2)cc1	x	x	x	x	-4.1	6	x	0.3	-3	-3
Cc1cc(C(=O)N/N=C2\CCCC(=O)C2)c2ccccc2n1	u	x	x	x	-16	-2	x	1.1	-1	-4
Cc1ccc(Nc2nc(-c3ccncc3)nc3ccccc23)cc1	x	23	16	1.4	1.2	19	-0.6	-1.1	-2	9
CCOC(=O)C1Cc2c([nH]c3ccccc23)CN1 (centres undefined)	-1%	x	x	x	-3.1	-7	x	0.6	7	-2
CN(C)S(=O)(=O)N1CCN(C(=O)N2CCCCC2)CC1	-1%	x	x	x	9.0	-3	x	0.0	3	x
COc1ccc2[nH]c(=O)c(CN(C(=O)C(C)C)c3ccccc3OC)cc2c1	x	3	1	-4.4	4.2	5	-2.7	-0.2	10	1
NC(=O)CSc1nnc(C2CC2)n1-c1ccccc1	5%	x	x	x	-2.0	-3	x	-1.9	u	5
CC(C)(C)C1CCCCC1NC(=O)c1ccncc1 (centres undefined)	-4%	2	7	2.2	0.5	10	-1.3	0.3	1	x
Cc1cc(NC(=O)CCC(=O)N(c2ccccc2)C(C(=O)NC(C)(C)C)c2ccccc2Cl)no1 (centres undefined)	x	4	-5	-0.2	u	-3	1.8	0.4	-8	-14
CC1CCCC(C)N1C(=O)COC(=O)CN1C(=O)c2ccccc2C1=O (centres undefined)	x	18	11	4.0	x	x	-2.3	1.0	x	3
O=C(O)CC(Cc1ccccc1)C(=O)NCC12CC3CC(CC(C3)C1)C2 (centres undefined)	17%	-19	-24	-1.6	-2.2	7	-2.3	0.3	-3	-2
